Ba CapD inh = inhibitors of Bacillus anthracis CapD enzyme; z-score (test concentration not listed); AID 492967; hit rate 0.23% among 140,000; purified CapD enzyme, fluorescence intensity read-out; stronger effect = lower value; some hits fall short of the stated cut;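 active means z-score under -4 in either of two replicates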;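 further: stock transfer was 100 nL into about 40 µL; score is relative to mean and spread of the plate; one replicate is shown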
AID504770 = E. coli YBA685 growth inhibition, screen for V. cholerae RctB inhibitors; E. coli YBA685 rctB-dependent plasmid, OD600 growth, 3 h; stronger effect = lower value; z-score (no concentration beside the values); hit rate 0.27% among 130,000;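 active means z-score under -2 on both plates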;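 further: wells of about 30 µL received 100 nL stock; score is relative to mean and SD of the test wells; the first replicate is given; strong numbers were not always called active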
The depositor's hits bear a star; i = inactive; x = no result given; & = joins results of further samples.

SMILES	Ba CapD inh	AID504770
COc1ccccc1N1CCN(S(=O)(=O)c2ccc(F)c(C(=O)Nc3cc(C)cc(C)c3)c2)CC1	-0.485	x
Nc1nnc(-c2ccc([N+](=O)[O-])o2)s1	-2.96	x
Cc1csc2c(=O)n(CCN3CCSCC3)c(=O)[nH]c12	0.17	-0.3
N#Cc1cnc(-c2ccncc2)nc1-c1cccs1	0.105	0.15
Cc1cc(C)c(C)c(S(=O)(=O)NC2COC(C)(C)OC2c2ccccc2)c1C (stereo not given)	0.06	x
O=C(NCCN1CCOCC1)C1CCCN1S(=O)(=O)c1ccc(Cl)cc1 (stereo not given)	x	-0.1
CCOC(=O)c1cnc2c(OC)cccc2c1Nc1ccc(Br)cc1C	-2.29	x
Cc1c(Cc2ccccc2)c(=O)oc2c(C)c(OCC(=O)O)ccc12	74.7	0.5
CCOC(=O)c1sc2nc(SCc3cc(C(C)=O)ccc3OC)n(Cc3ccco3)c(=O)c2c1C	-0.125	x
O=C(c1ccccc1)N1CCC(c2ccncc2)CC1	x	-0.55
O=C(Nc1ccc(Cl)cc1OC(F)(F)F)c1ccco1	-0.435	0.1
O=C(ON1C(=O)c2cccc3cccc(c23)C1=O)c1ccccc1	0.43	0.25
COc1ccccc1N1CCN(C(=O)CSc2nc3ccccc3c(=O)n2CCC(=O)NCc2ccc(F)cc2)CC1	-0.94	x
COC(=O)NCC(c1ccc2c(c1)OCO2)N1CCN(c2ccccc2)CC1 (stereo not given)	x	-0.1
Cc1c(-n2c(O)c(C3=c4ccccc4=NC3=O)sc2=O)c(=O)n(-c2ccccc2)n1C	0.39	1.15
N#Cc1cccc(NC(=O)Cc2ccccc2)c1	0.13	-0.7
CC(C)C(NS(=O)(=O)c1ccc2c(c1)OCCO2)C(=O)OCc1cn2cc(Cl)ccc2n1 (stereo not given)	x	-0.2
Nc1ccc(O)cn1	x	-0.95
CCOC(=O)Cc1csc(NC(=O)COc2cccc3ccccc23)n1	0.025	0.35
COc1ccccc1NC(=O)CN1c2cccc3cccc(c23)S1(=O)=O	-0.115	-0.15
Cc1ccccc1NC(=O)OC1CN2CCC1CC2 (stereo not given)	0.07	1.1
CSc1nc(N)nc(-c2csc(C)n2)n1	-0.81	-0.2
CC(C)(C)C(=O)/C=C/Nc1ccc(C(=O)O)cc1	-1.5	-0.05
CCCOC(=O)C1=C(C)NC2=C(C(=O)CC(c3ccc(OC)c(OC)c3)C2)C1c1cccc(OC)c1OC (stereo not given)	6.16	x

Single entries from the results shown:
Ba CapD inh with Nc1nnc(-c2ccc([N+](=O)[O-])o2)s1 is entered as -2.96
AID504770 with Cc1ccccc1NC(=O)OC1CN2CCC1CC2 (stereo not given) is entered as 1.1
AID504770 with Nc1ccc(O)cn1 is entered as -0.95
AID504770 with N#Cc1cccc(NC(=O)Cc2ccccc2)c1 is entered as -0.7
Ba CapD inh with Cc1cc(C)c(C)c(S(=O)(=O)NC2COC(C)(C)OC2c2ccccc2)c1C (stereo not given) is entered as 0.06
AID504770 with CSc1nc(N)nc(-c2csc(C)n2)n1 is entered as -0.2
AID504770 with CC(C)C(NS(=O)(=O)c1ccc2c(c1)OCCO2)C(=O)OCc1cn2cc(Cl)ccc2n1 (stereo not given) is entered as -0.2

(listing goes on)
SMILES	Ba CapD inh	AID504770
COc1ccc(C2CC(c3ccccc3)=NN2S(=O)(=O)c2ccc(C)cc2)c(OC)c1 (stereo not given)	-0.22	x
CCOc1ccccc1NC(=O)c1ccc(F)c(S(=O)(=O)N2CCN(c3cccc(C)c3)C(C)C2)c1 (stereo not given)	-0.56	x
O=C(/C=C/c1cc(Cl)c2c(c1)OCCCO2)Nc1ccc(-n2cnnn2)cc1	x	-0.4
O=C(CSc1nc2sc3c(c2c(=O)[nH]1)CCCC3)NCc1ccccn1	0.28	x
COc1ccc2oc(CS(=O)c3ccccc3)c(C(=O)O)c2c1 (stereo not given)	-0.405	-0.15
Cc1cc(C(F)(F)F)nc2sc(C(=O)Nc3ccc(C(N)=O)cc3)c(N)c12	-0.26	-0.4
Cc1nc2ccccc2n1CC1CC1(Cl)Cl (stereo not given)	-0.66	-1.1
O=C(CN(c1ccc(Cl)c(Cl)c1)S(=O)(=O)c1ccccc1)N1CCN(c2ccccc2)CC1	0.215	x
Cc1ccc(N2C(=O)C(=O)/C(=C(/O)c3ccccc3)C2c2ccc3c(c2)OCO3)cc1Cl (stereo not given)	-0.435	x
C=CCOc1ccc(/C=C2/C(=O)C3CCN2CC3)cc1	-2.34	2.35
Cc1ccc2c(Cl)c(C(=O)N3CC(C)OC(C)C3)sc2c1 (stereo not given)	-0.225	-0.5
COC(=O)COc1ccc(/C=C2\C(=O)NC(=S)N(c3ccc(F)cc3)C2=O)cc1OC	-0.29	x
CCOC(=O)N1CCN(Cc2ccc(O)c(OC)c2)CC1	0.38	-0.5
Cn1c(=O)c2cc(S(=O)(=O)NC(C(=O)NC3CCCCCC3)c3ccccc3)ccc2n(C)c1=O (stereo not given)	-0.55	-2.1
O=C(Nc1ccc([N+](=O)[O-])cc1)Nc1ccc(S(=O)(=O)N(C2CC2)C2CCN(Cc3ccccc3)CC2)cc1	-0.585	x
CSc1nc(N)nc(SCC(=O)Nc2ccccc2)c1C#N	0.205	-1.6
O=C(O)CN1CC(=O)Nc2ccccc21	x	0.05
Cc1sc2ncnc(NCCc3ccc4c(c3)OCCO4)c2c1C	-0.185	-0.05
O=C(O)[C@@H]1CCCN1Cc1ccccc1	-0.16	-0.7
Brc1ccc2c3c(ccc2c1)OCN(c1ccccc1)C3	0.245	-1.75
O=C(Nc1ccc(Cl)cc1)OCc1cn(-c2ccc(Cl)cc2)nn1	-0.725	x
Cn1c(=O)cc(Cl)c2ccccc21	8.48	-0.75
CCCS(=O)(=O)c1nc(S(=O)(=O)c2ccc(Cl)cc2)c(N2CCC(O)CC2)s1	-1.66	0.7
CN1N=C(C(C)(C)C)CSC1=Nc1ccc(F)cc1	0.09	1.7
COc1ccccc1C1CC(=O)NC(SCC(=O)Nc2ccc(Br)cc2)=C1C#N (stereo not given)	-0.31	x
C=CCN(C(=O)c1ccc(Cl)cc1Cl)c1nnc(-c2ccncc2)s1	0.345	0.15
Cc1ccc(CNc2nc(C)c3nc(-c4ccccc4)oc3n2)cc1	91.3	0.6
Cc1[nH][nH]c(=O)c1N=Nc1ccccc1	-3.42	-0.6
OCc1cn(-c2ccccc2)nc1-c1cccs1	3.24	-0.95
O=C(CSc1ncnc2sccc12)N1CCC(c2nc3ccccc3o2)CC1	x	2.2
CC(=O)Oc1ccc(N2C(=O)C3C4c5ccccc5C(C=O)(c5ccccc54)C3C2=O)cc1 (stereo not given)	0.05	x
COC(=O)CN1C(=O)CSc2ncccc21	-1.23	0.5
Cn1c(COc2ccc(C(C)(C)c3ccccc3)cc2)n[nH]c1=S	-0.24	-0.1
Cc1ccc(Nc2nc(N)c([N+](=O)[O-])c(Nc3ccc(C)cc3)n2)cc1	-0.58	x
CC(C)CNc1nc(Oc2ccc(=O)n(C)n2)nc(N2CCOCC2)n1	0.03	2
COC(=O)C1(C(=O)/C=C/c2ccc(Br)cc2)CCCCC1	-0.645	x
CC1=C(C(=O)Nc2ccc(Cl)cc2C(=O)N2CCN(c3ccccc3)CC2)SCCO1	0.66	0.2
NC(=O)C1=C(N)NC(=S)NC1c1ccccc1 (stereo not given)	x	-0.3
NNc1nc2ccccc2[nH]c1=S	0.05	-3.2*
CCC(=O)OC1CCC2(C)C(=CCC3C2CCC2(C)C(C(C)CCCC(C)C)CCC32)C1 (stereo not given)	-0.31	x
O=C(Nc1ccc(-c2nc3ncccc3o2)cc1)c1ccc([N+](=O)[O-])o1	7	x
CCOC(=O)N1CCN(C2CC(=O)N(c3ccc(I)cc3C)C2=O)CC1 (stereo not given)	-0.06	-1.15
O=C(N/N=C/c1ccc(-c2ccc(S(=O)(=O)Nc3ncccn3)cc2)o1)c1cccnc1	x	-0.4
O=C(COC(=O)c1c[nH]c(=O)[nH]c1=O)Nc1ccccc1	x	0
N#C/C(=C/c1ccccc1)C(=O)N/C=N/OCc1c(Cl)cccc1Cl	-0.535	x
O=C(CCCN1CCN(c2ccccn2)CC1)c1ccc(F)cc1	-0.75	0.15
COc1ccc(C(=O)NC2CCS(=O)(=O)C2)cc1 (stereo not given)	-0.38	-1.35
CN(Cc1cccs1)C(=O)COc1ccc(-c2nnco2)cc1	x	1.8

Complete entries as entered above.
CN(Cc1cccs1)C(=O)COc1ccc(-c2nnco2)cc1 is entered as Ba CapD inh = x; AID504770 = 1.8
O=C(CCCN1CCN(c2ccccn2)CC1)c1ccc(F)cc1 is entered as Ba CapD inh = -0.75; AID504770 = 0.15
NNc1nc2ccccc2[nH]c1=S is entered as Ba CapD inh = 0.05; AID504770 = -3.2*

Additional results
SMILES	Ba CapD inh	AID504770
c1ccc(CNc2ncnc3nc[nH]c23)cc1	0.215&0.625&-0.76	0.55&-0.55
N#Cc1ccccc1S(=O)(=O)Nc1ccccc1	x	0.4
O=C(CNC1CC1)Nc1c(Cl)cccc1Cl	x	0.25
CNCC(=O)Nc1c(C)n[nH]c1C	x	0
Nc1cc(Cl)ccc1C(=O)OCC(=O)c1ccccc1	0.54	1.6
CC(C)NC(=O)c1ccc2c(=O)n(CCc3ccccc3)c(=O)[nH]c2c1	0.875	-0.4
COC(=O)C(Cc1ccccc1)NC(=O)c1cccc2ccccc12 (stereo not given)	1.59	-2.3
O=C(C1Cc2c(ccc3ccccc23)O1)N1CCN(c2ccccc2F)CC1 (stereo not given)	-0.435	x
CCCCNC(=O)c1ccc(F)cc1Cl	0.64	-1.15
Cc1[nH][nH]c(=O)c1C(c1ccccc1)C(C#N)C#N (stereo not given)	0.445	0.35
C/C(=C\c1nsc(Nc2ccc(Cl)cc2)n1)NCc1ccc2c(c1)OCO2	0.235	x
CCOC(=O)CC(=O)CSc1nc2cc(C(=O)NCc3ccco3)ccc2c(=O)n1-c1ccc(OC)c(OC)c1	-0.18	x

4 records picked at random from those above:
SMILES	Ba CapD inh	AID504770
Nc1cc(Cl)ccc1C(=O)OCC(=O)c1ccccc1	0.54	1.6
CCCCNC(=O)c1ccc(F)cc1Cl	0.64	-1.15
CNCC(=O)Nc1c(C)n[nH]c1C	x	0
N#Cc1ccccc1S(=O)(=O)Nc1ccccc1	x	0.4

Continued:
SMILES	Ba CapD inh	AID504770
NN(C(=O)C1CCCCC1)c1nc2ccccc2s1	0.065	-0.9
COC(=O)CN1C(=S)N(C)C(=O)/C1=C/c1ccco1	-4.13*	-0.85
COC(=O)C1C(=O)C2=C(CC1C)Nc1ccccc1NC2c1ccc(N(C)C)cc1 (stereo not given)	x	0
O=C(NCc1ccccc1)c1ccccc1C(=O)c1ncc[nH]1	x	-0.65
Cn1c(SCC(=O)Nc2cccc(Cl)c2)nnc1C(F)(F)F	0.535	0.1
O=C(NNC(=O)c1ccccc1NC(=O)c1c(F)cccc1F)OCc1cccc(OCc2ccccc2)c1	-0.1	x
CCOC(=O)c1nc(NCc2ccc3c(c2)OCO3)c2ccccc2n1	0.135	-1.45
CCOC(=O)c1ccc(NCc2ccccc2OC)cc1	2.87	-0.2
CNC(=O)Cn1nc(-n2cccc2)c2c(C)cc(C)nc21	1.55	0.35
Clc1nc(Cl)nc(OCCCOc2nc(Cl)nc(Cl)n2)n1	x	-0.25
CCCCNC(=O)Nc1ccc(Br)cn1	x	-0.1
C=CCn1c(CCc2ccc(OC(C)C)cc2)n[nH]c1=S	x	0.2
Cc1c(C(=O)NC2CCCCC2)sc2nc(SCC(=O)C(C)(C)C)n(CCc3ccccc3)c(=O)c12	-0.24	x
CC(C)(C)c1ccc(CN2CCN(S(=O)(=O)c3cc(Cl)sc3Cl)CC2)cc1	0.075	x
COc1cc2c(C#N)c(N(C)C(c3ccccc3)c3ccccc3)nc(N)c2c(N)n1	x	0.5
Cc1csc(Nc2ccc(F)c(Cl)c2)[n+]1C(C)C	0.96&-0.6	-0.75&-1.1
CCCn1c(=O)n(C)c(=O)c2c(SC(C)c3nc4ccccc4c(=O)[nH]3)nc(C(C)(C)C)nc21 (stereo not given)	x	-0.3
Cc1cc(C)nc(N2CCN(C(=O)c3cc(Cl)nc(Cl)c3)CC2)n1	-0.72	x
CCN1C(=O)/C(=C2/C=CC=CN2C)N(c2ccccc2)C1=S	-1.56	-0.05
O=C(/C=C/C=C/c1ccccc1)c1ccc(Cl)cc1	-0.075	0.85
O=C(Cn1cc(/C=C2\C(=O)NC(=S)N(c3ccccc3F)C2=O)c2ccccc21)Nc1ccccc1	-0.345	x
O=C(NC1CCCCC1)N1CCCC(c2nc(-c3ccc(Cl)cc3)no2)C1 (stereo not given)	x	1.65
O=C(Cc1ccc([N+](=O)[O-])cc1)N1N=C(c2cccc([N+](=O)[O-])c2)CC1(O)C(F)(F)F (stereo not given)	-1.2	x
O=C1C(=O)N(c2nc3ccccc3s2)C(c2cccc([N+](=O)[O-])c2)/C1=C(\O)c1ccccc1 (stereo not given)	0.035	x
C=CCOc1ccccc1COC(=O)NCc1ccc(-c2csnn2)cc1	-0.935	x
COc1ccc(Cl)cc1N(CC(=O)N1CCN(c2ccccc2)CC1)S(=O)(=O)c1ccc(C)c([N+](=O)[O-])c1	-0.095	x
CCOC(=O)c1cnc2ccc(C)cc2c1NCCO	0.995	1.55
NC(=O)COC(=O)c1cc(Cl)cc(Cl)c1	0.485	-0.2
O=C(CCC(=O)NC1CCN(Cc2ccccc2)CC1)Nc1nc(-c2cc3ccccc3oc2=O)cs1	9.04	x
O=C(NNC(=O)c1ccc(Cl)cc1)OCCc1ccccc1Br	0.415	x
CCN1/C(=C/c2scc[n+]2C)C=C(C)c2cc(OC)c3ccccc3c21	10.3	0.15
CC(C)(C)SCC(=O)NCc1ccc(S(N)(=O)=O)cc1	x	-0.7
O=C(C1CCCCC1)N1CC(=O)N(CCc2ccccc2)C(=O)C1	i	-0.8
O=C(/C=C/S(=O)(=O)c1ccc(Cl)cc1)c1ccc(F)cc1	-0.38	-1.95
CCC(=O)N1CC23C=CC(CC2CC12CCCCC2)O3 (stereo not given)	-0.045	-0.75
CCn1c(=O)[nH]c2ccccc21	x	-0.65

Screening data from PubChem.

An excerpt; rates above refer to the full screens.
